VCAM-1 augmentation – enhancers of VCAM-1 display on endothelial cells, imaging, high-content imaging, pooled HUVEC, TNFa stimulus (AID 457) | Pooled HUVEC, TNFa-induced VCAM-1 immunofluorescence imaging; hits of this screen are not shown here | calls only | 10,000 compounds, 0.2% hits;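 active means a top-ranked rise in VCAM-1 staining upheld on image or statistical review; inactive means the rest, including candidates rejected on review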;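 further: compounds tested at 5 µM in the well; cells exposed to compound for 24 hours before fixing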
FPRL1 ligand – human FPRL1 ligands by binding competition, primary screen, cell-based, FPR counter-screen, flow cytometry | N-formyl peptide receptor 2 (Homo sapiens), P25090 | FPRL1-expressing cells, fluorescent ligand binding inhibition | inhibition, %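 (tested at 6.7 µM)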 | 24,000 compounds, 0.3% hits | AID 441, 2006;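 further: 0% = buffer alone and 100% = receptor blocker peptide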
Target sequence (P25090 whole entry, looked up): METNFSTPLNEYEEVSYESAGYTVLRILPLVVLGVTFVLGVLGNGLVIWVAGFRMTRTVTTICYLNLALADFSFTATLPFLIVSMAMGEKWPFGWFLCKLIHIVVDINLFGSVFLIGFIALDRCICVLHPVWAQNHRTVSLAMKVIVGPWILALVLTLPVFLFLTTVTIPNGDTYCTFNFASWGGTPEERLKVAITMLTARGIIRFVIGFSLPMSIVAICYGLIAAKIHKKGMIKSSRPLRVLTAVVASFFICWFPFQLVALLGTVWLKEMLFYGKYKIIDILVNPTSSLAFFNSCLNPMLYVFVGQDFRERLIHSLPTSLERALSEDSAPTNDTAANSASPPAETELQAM
FPR ligand – human FPR ligands by binding competition, primary screen, cell-based, FPRL1 counter-screen, flow cytometry; fMet-Leu-Phe receptor (Homo sapiens), P21462; FPR-expressing cells, fluorescent ligand binding; inhibition, %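 (tested at 6.7 µM)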; 24,000 compounds, 0.74% hits;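 further: 0% = buffer wells and 100% = receptor blocker peptide wells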
Target sequence (P21462 whole entry, looked up): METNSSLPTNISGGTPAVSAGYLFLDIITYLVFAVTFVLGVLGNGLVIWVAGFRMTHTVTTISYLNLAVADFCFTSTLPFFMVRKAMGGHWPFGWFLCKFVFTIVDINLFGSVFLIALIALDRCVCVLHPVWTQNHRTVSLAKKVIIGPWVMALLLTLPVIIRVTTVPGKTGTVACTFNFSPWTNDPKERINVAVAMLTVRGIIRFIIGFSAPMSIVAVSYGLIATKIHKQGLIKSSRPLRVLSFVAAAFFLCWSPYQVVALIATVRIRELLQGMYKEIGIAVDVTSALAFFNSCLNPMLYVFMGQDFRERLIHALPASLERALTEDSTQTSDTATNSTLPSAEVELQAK
VCAM-1 imaging – inhibitors of TNFa-induced VCAM-1 surface display, imaging, high-content imaging, pooled HUVEC, TNFa stimulus (AID 456); 10,000 compounds, 0.2% hits; HUVEC TNFa-induced VCAM-1 surface expression, immunofluorescence imaging; numbers were filed only for top-ranked candidate wells; inhibition, % at 5 µM; hits with a dose series show IC50 in µM;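 active means top tenth filtered wells with inhibition above zero that passed visual or statistical confirmation; inactive means the rest, including hits rejected on review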;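 further: 0% = stimulated vehicle wells and 100% = unstimulated cells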
VCAM-1 inhibition – inhibitors of TNFa-induced VCAM-1 surface display, cell-based, plate reader, pooled HUVEC, TNFa stimulus (AID 454); HUVEC TNFa-induced VCAM-1 surface immunofluorescence, plate reader; numbers were filed only for top-ranked candidate wells; inhibition, % at 5 µM; 10,000 compounds, 0.2% hits;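 active means compound among top-ranked inhibitors of TNF-induced VCAM-1 adhesion protein staining, with the hit upheld by image or statistical review; inactive means the rest, including hits rejected on review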;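 further: 0% = TNFa with vehicle and 100% = cells without TNFa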
An asterisk follows results filed as active; i = inactive; · = not tested or not shown.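 How the source made its calls, unless noted: active means mean above 30%; inconclusive means self-fluorescent; inactive means the rest.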

SMILES	VCAM-1 augmentation	FPRL1 ligand	FPR ligand	VCAM-1 imaging	VCAM-1 inhibition
COc1cccc(-c2nn(C)c3sc(C(=O)N4CCN(c5ccccc5)CC4)cc23)c1	·	-4	-2	·	·
COc1ccc(/C(O)=C2\C(=O)C(=O)N(c3cc(C)on3)C2c2ccccc2OC)cc1 (configuration not stated)	i	-4	0	i	i
COc1ccc(-c2noc(-c3cccc(OC)c3OC)n2)cc1OC	·	-3	2	·	·
CCCCN(CCCC)CCCNC(=O)CC1Oc2ccc(C)cc2NC1=O (configuration not stated)	i	-6	3	i	i
O=C(O)CCC(=O)Nc1ccc(N2CCOCC2)cc1	·	-7	4	·	·
Cc1cc2cc(CNC(=O)c3ccc4c(c3)OCO4)ccc2[nH]1	i	-2	0	i	i
O=C(CC1CCS(=O)(=O)C1)NC1CCCCC1 (configuration not stated)	·	-3	0	·	·
Cc1ccc(S(=O)(=O)N2CCCC(C(=O)NC3=NCCS3)C2)cc1 (configuration not stated)	i	1	-3	i	i
O=S(=O)(c1cccc2cccnc12)N(CCO)CCO	·	0	-2	·	·
O=C(CN1C(=O)CSC1=O)N1CCc2ccccc2C1	i	-8	-5	i	i
O=C(Cn1ccc2ccccc2c1=O)NCCC(=O)N1CCN(C(=O)c2ccco2)CC1	i	3	-4	i	i
CCOc1cc(C2C(C(=O)c3ccc(C)o3)=C(O)C(=O)N2CCc2ccccc2)ccc1O (configuration not stated)	·	-9	90*	·	·
CCOCCOC(=O)C1=C(C)N(C)C(=O)NC1c1cc(Cl)c(O)c(OC)c1 (configuration not stated)	·	-1	1	·	·
O=C1c2cccnc2C(=O)N1c1cccc(-c2nc3ccccc3o2)c1	i	-2	-2	i	i
CCn1cc(C(=O)NCC(=O)OC)c2cc(OC)c(OC)cc2c1=O	·	2	3	·	·
CN(C)C(=O)N1CCN(C(=O)c2ccco2)CC1	i	2	-5	i	i
CCC1CCCCN1S(=O)(=O)c1ccc2c(c1)CCN2C(=O)C1CCC1 (configuration not stated)	·	-2	-2	·	·
CCOc1ccc(CCNC(=O)CN(C)S(=O)(=O)c2cccc3nsnc23)cc1OCC	·	2	-2	·	·
O=C(CCc1nc2ccccc2[nH]1)Nc1ccc2c(c1)OCCO2	·	4	1	·	·
O=C(Nc1ccc(SC(F)F)cc1)c1ccc2nccnc2c1	i	1	-1	i	i
CC1(C)C2CCC1(CS(=O)(=O)NCc1ccc(C(=O)O)cc1)C(=O)C2 (configuration not stated)	i	2	4	i	i
COC(=O)CN(c1ccc(C(C)C)cc1)S(=O)(=O)c1c(C)[nH]c(=O)[nH]c1=O	·	4	23	·	·
O=C(O)C1CC(=O)N(CCOc2ccccc2)C1 (configuration not stated)	i	6	-1	i	i
CCOC(=O)c1[nH]c(C)c(CN(CCc2ccccc2)C(=O)CCC(=O)O)c1C	·	-4	13	·	·
Cc1oc(-c2ccccc2F)nc1CS(=O)(=O)CC(=O)N1CCN(Cc2ccccc2)CC1	i	1	6	i	i

Continuation.
SMILES	VCAM-1 augmentation	FPRL1 ligand	FPR ligand	VCAM-1 imaging	VCAM-1 inhibition
Fc1ccc(-c2nnc(-c3ccc(Cl)cc3Cl)o2)cc1	·	5	-2	·	·
CCc1c(C)nc(SCCOc2ccc(OC)cc2)[nH]c1=O	·	-1	-2	·	·
COCCNC(=O)c1cn(C)c2ccc(S(=O)(=O)N(C)C3CCCCC3)cc2c1=O	·	3	3	·	·
COCCn1c(=S)[nH]c2cc(C(=O)NCC3CCCO3)ccc2c1=O (configuration not stated)	·	0	-4	·	·
CCOC(=O)c1ccccc1NC(=O)c1ccc2c(=O)n3c(nc2c1)CCCCC3	i	4	2	71%	i
COc1ccc(OC)c(S(=O)(=O)n2nc(-c3ccccc3)cc2N)c1	·	3	-2	·	·
COc1ccc(NC(=O)Cn2c(=O)sc3ccccc32)c(OC)c1	·	3	-2	·	·
CN(C)c1ccc(C=Nc2ccc(N(C)C)cc2)cc1	i	-1	-2	i	i
Fc1ccc(C2CC(c3ccco3)n3ncnc3N2)cc1 (configuration not stated)	·	3	3	·	·
COc1cccc(OC)c1OCCCc1c(C)n[nH]c1C	·	-6	-3	·	·
CCCCOc1ccc(S(=O)(=O)n2c(C)nc3ccccc32)cc1	i	-5	5	i	i
CC1CNCCN1S(=O)(=O)c1cccc2cnccc12 (configuration not stated)	i	2	2	i	i
CC(C)N1C(=O)CCC1C(=O)NCCc1ccc(Cl)cc1 (configuration not stated)	·	0	-4	·	·
Cc1ccc(-c2noc(CCC(=O)NCCN3CCOCC3)n2)cc1	·	2	0	·	·
CC(=O)Nc1cc(N2C(=O)CCC2=O)ccc1Cl	i	-2	-4	i	i
COc1ccccc1-c1c(C)nn2c(NCCN3CCCC3)cc(C)nc12	·	-1	-2	·	·
CC(C)CCN1CC(C(=O)N2CCN(c3ccc(F)cc3)CC2)CC1=O (configuration not stated)	·	4	-1	·	·
O=C(NCCc1ccccc1)C1CCN(S(=O)(=O)N2CCCC2)CC1	·	-6	-4	·	·
CCC(=O)c1ccc(OC(=O)c2ccc(Br)o2)cc1	i	-4	-3	i	i
Cc1c(O)c(CN2CCCC(C)C2)cc2c3c(c(=O)oc12)CCC3 (configuration not stated)	i	0	2	i	i
O=C1C2CCCN2C(c2cccc(Br)c2)N1c1ccc(F)cc1 (configuration not stated)	·	2	-4	·	·
CCOC(=O)N1CCN(c2c(-c3ccc(C(C)C)cc3)c(=O)c2=O)CC1	·	0	-8	·	·
CCOC(=O)c1sc2nc(NC(=O)COc3ccccc3)sc2c1C	i	7	-2	i	i
Cn1c(=O)c(=O)n(C)c2cc(S(=O)(=O)N3CCN(Cc4ccccc4)CC3)ccc21	·	3	-3	·	·
CN1CCN(C(=O)CN2C(=O)CC(C)(C)S(=O)(=O)c3ccccc32)CC1	·	-3	-8	·	·

Further entries:
SMILES	VCAM-1 augmentation	FPRL1 ligand	FPR ligand	VCAM-1 imaging	VCAM-1 inhibition
CCCN(CCC)C(=O)c1c(C)[nH]c(C(=O)OCC)c1C	i	3	2	i	i
Cc1nc(SCc2ccc(Br)cc2)[nH]c(=O)c1C	i	-1	-7	i	i
CCOC(=O)C1CCN(S(=O)(=O)c2cccc(-c3csc(C)n3)c2)CC1	i	2	-4	i	i
CCc1cccc(NC(=O)CN(C)S(=O)(=O)c2cnc[nH]2)c1	·	2	-6	·	·
COc1ccc(N2CCN(C(=O)C3CCN(S(=O)(=O)N4CCOCC4)CC3)CC2)cc1	·	-2	-1	·	·
Cc1ccc(-c2nn3c(C)nnc3s2)cc1NC(=O)COc1ccc(Cl)cc1	·	0	12	·	·
CCOc1cccc2cc(-c3nnc(-c4ccccc4)o3)c(=O)oc12	·	0	0	·	·
CCOC(=O)N1CCN(C(=O)C2CCCN(c3ncnc4c3sc3cccc(F)c34)C2)CC1 (configuration not stated)	·	-5	1	·	·
Cc1nc(-c2ccccc2)sc1C(N)=O	i	1	-5	i	i
Cn1cccc1Cc1nnc(SCC(=O)N2CCOCC2)n1-c1ccc(F)cc1	i	3	-1	i	i
COc1ccc2c(c1)CCc1c-2n[nH]c1C(=O)O	·	3	-7	·	·
CCOC(=O)N1CCC(N2Cc3cccc(C(=O)NCc4ccc5c(c4)OCO5)c3C2=O)CC1	·	-11	2	·	·
CC(=O)N=c1sc(S(N)(=O)=O)nn1C	i	-4	-6	i	i
Cc1ccc(NC(=O)Cn2cc3c(n2)CCC(C)C3)cc1 (configuration not stated)	·	-3	1	·	·
CCn1c(C(C)NC(=O)Cc2ccccc2)nc2ccccc21 (configuration not stated)	·	3	2	·	·
O=C1Nc2ccc(S(=O)(=O)N3CCCCCC3)c3cccc1c23	·	-1	6	·	·
O=C(Nc1ccccn1)C(NS(=O)(=O)c1cccc2nsnc12)c1ccccc1 (configuration not stated)	·	5	-4	·	·
O=C1C(=O)N(CCO)C(c2cccc(F)c2)/C1=C(\O)c1ccc(Cl)cc1 (configuration not stated)	·	-8	23	·	·
CCc1nc2scc(-c3ccccc3)c2c(=O)n1N	i	-1	-4	i	i
Cc1cc(NC(=O)CSc2nc3cc4c(cc3c(=O)n2CCc2ccccc2)OCO4)no1	·	0	0	·	·
O=C(c1noc2c1CCCC2)N1CCCCC1	·	3	2	·	·
Oc1c(Cl)cc(Cl)c2c1NCCC2	i	4	-8	i	i
CCC1Oc2ccccc2N(CC(=O)NCCCN2CCOCC2)C1=O (configuration not stated)	·	-2	-2	·	·
CCCS(=O)(=O)N1CCCC(C(=O)NCCN(Cc2ccccc2)C(C)C)C1 (configuration not stated)	·	2	-2	·	·
COc1cccc2cc(-c3nc(-c4cccs4)cs3)c(=O)oc12	·	4	6	·	·

As entered above.
FPRL1 ligand with `COc1ccc(N2CCN(C(=O)C3CCN(S(=O)(=O)N4CCOCC4)CC3)CC2)cc1` → -2
FPRL1 ligand with `CCn1c(C(C)NC(=O)Cc2ccccc2)nc2ccccc21` (configuration not stated) → 3

2 entries picked at random from the list so far:
SMILES	VCAM-1 augmentation	FPRL1 ligand	FPR ligand	VCAM-1 imaging	VCAM-1 inhibition
CCOc1cccc2cc(-c3nnc(-c4ccccc4)o3)c(=O)oc12	·	0	0	·	·
CCCS(=O)(=O)N1CCCC(C(=O)NCCN(Cc2ccccc2)C(C)C)C1 (configuration not stated)	·	2	-2	·	·

(list continues)
SMILES	VCAM-1 augmentation	FPRL1 ligand	FPR ligand	VCAM-1 imaging	VCAM-1 inhibition
Cc1cccc(C)c1NC(=O)COC(=O)c1nonc1N	i	-2	-12	i	i
Cc1ccc2c(C)nc(NC3=NCN(C(C)C)CN3)nc2c1	i	-3	14	i	i
Cc1cc(C)c2oc(=O)cc(CN3CCOCC3)c2c1	i	4	0	i	i
COc1ccc(NC2c3ncccc3C(=O)N2Cc2ccccc2)c(OC)c1 (configuration not stated)	i	-7	-3	i	i
Clc1ccc(CSc2nnc(Cn3cnc4ccccc43)o2)cc1	i	0	1	i	i
Cc1ccc(-c2noc(CCC(=O)Nc3cccc(C#N)c3)n2)cc1	·	0	3	·	·
FC(F)(F)c1ccc(Sc2nnc(-c3cccs3)n2CC2CCCO2)nc1 (configuration not stated)	i	-2	-2	i	i
Cc1noc(C)c1S(=O)(=O)N1CCC(C(=O)N2CCC(C)CC2)CC1	·	8	2	·	·
CCCCCSc1nnc(C)c(=O)[nH]1	·	4	-1	·	·
CCN(CC)c1ccc2cc(NC(=O)CCC(=O)O)c(=O)oc2c1	i	1	-5	i	i
COc1ccc(N(CC(=O)NCc2cccs2)S(=O)(=O)c2cccnc2)cc1	·	0	-5	·	·
CCOCC(=O)Nc1ccc(-c2cn3cccnc3n2)cc1	·	2	2	·	·
O=C(CCn1c(=O)sc2ccccc21)NCc1ccco1	·	2	7	·	·
Cc1ccnc(N2C(=O)OC(C)(C)C2(C)O)c1 (configuration not stated)	·	-4	-1	·	·
CCN(CC)C(=O)N1CCN(C(=O)c2ccc(C)cn2)CC1	·	-5	-1	·	·
CCN1C(=O)c2n[nH]c(C(=O)OC)c2C1=O	·	5	2	·	·
COCCOC(=O)c1[nH]c2c(c1C)C(=O)CC(c1ccccc1)C2 (configuration not stated)	·	7	9	·	·
NC(=O)Cn1c(=O)n(CCCC(=O)NC2CCN(Cc3ccccc3)CC2)c(=O)c2ccccc21	·	-2	4	·	·
CCOC(=O)c1ccc(NC(=O)c2nccnc2C(=O)O)cc1	·	4	0	·	·
COC(=O)CSc1nnc(CNC(=O)c2ccco2)n1-c1ccc(F)cc1	·	2	7	·	·

12 entries from above, ordered by number of heavy atoms, rising.
SMILES	VCAM-1 augmentation	FPRL1 ligand	FPR ligand	VCAM-1 imaging	VCAM-1 inhibition
CCCCCSc1nnc(C)c(=O)[nH]1	·	4	-1	·	·
CCN1C(=O)c2n[nH]c(C(=O)OC)c2C1=O	·	5	2	·	·
Cc1ccnc(N2C(=O)OC(C)(C)C2(C)O)c1 (configuration not stated)	·	-4	-1	·	·
Cc1cc(C)c2oc(=O)cc(CN3CCOCC3)c2c1	i	4	0	i	i
O=C(CCn1c(=O)sc2ccccc21)NCc1ccco1	·	2	7	·	·
CCN(CC)C(=O)N1CCN(C(=O)c2ccc(C)cn2)CC1	·	-5	-1	·	·
CCOC(=O)c1ccc(NC(=O)c2nccnc2C(=O)O)cc1	·	4	0	·	·
Clc1ccc(CSc2nnc(Cn3cnc4ccccc43)o2)cc1	i	0	1	i	i
Cc1ccc(-c2noc(CCC(=O)Nc3cccc(C#N)c3)n2)cc1	·	0	3	·	·
FC(F)(F)c1ccc(Sc2nnc(-c3cccs3)n2CC2CCCO2)nc1 (configuration not stated)	i	-2	-2	i	i
COc1ccc(NC2c3ncccc3C(=O)N2Cc2ccccc2)c(OC)c1 (configuration not stated)	i	-7	-3	i	i
NC(=O)Cn1c(=O)n(CCCC(=O)NC2CCN(Cc3ccccc3)CC2)c(=O)c2ccccc21	·	-2	4	·	·

The list is partial (hit frequency here may not be typical).
